Bioassay records deposited in PubChem BioAssay by National Center for Advancing Translational Sciences (NCATS).
D2 ag = Beta-Arrestin HTS for Positive Allosteric Modulators of the Human D2 Dopamine Receptor: Agonists; DiscoveRx PathHunter D2 beta-arrestin, luminescence, 90 min; 100% = 57 uM dopamine signal; activation, % (concentration not given with the values); AID 624465, 2012; D(2) dopamine receptor (Homo sapiens), P14416; hit rate 0.084% among 360,000; in the data active = activation above about 40%; inconclusive = about 15% to 40%; inactive = below about 15%; also: compound concentration not given in the record; the text of the record calls up to 30% inactive
Target sequence (P14416 whole entry, looked up): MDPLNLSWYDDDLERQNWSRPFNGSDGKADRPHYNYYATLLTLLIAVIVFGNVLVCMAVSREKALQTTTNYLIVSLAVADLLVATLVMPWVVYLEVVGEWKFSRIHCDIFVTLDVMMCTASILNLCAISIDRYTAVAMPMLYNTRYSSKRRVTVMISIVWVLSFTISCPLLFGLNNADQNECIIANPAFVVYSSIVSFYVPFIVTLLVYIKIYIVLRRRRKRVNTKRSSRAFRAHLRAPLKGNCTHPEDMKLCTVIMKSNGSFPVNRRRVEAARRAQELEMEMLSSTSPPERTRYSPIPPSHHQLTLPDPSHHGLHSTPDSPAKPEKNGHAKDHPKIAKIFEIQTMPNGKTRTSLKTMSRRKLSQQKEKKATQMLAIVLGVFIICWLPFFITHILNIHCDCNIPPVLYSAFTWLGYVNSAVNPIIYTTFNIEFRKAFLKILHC
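DiscoveRx PathHunter D2 beta-arrestin cells (2,100/well) attached overnight, then compound-stimulated 90 min at 37 C in HBSS/10 mM HEPES/0.1% Tween-20 buffer; beta-galactosidase complementation read by luminescence after 1 h at ambient temperature. Dopamine 57 uM final (EC100) as control.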
TRPML1 ag = qHTS for Agonists of the Human Mucolipin Transient Receptor Potential 1 (TRPML1). hit rate 0.12% among 410,000. TRPML1-expressing cells, Ca2+ dye fluorescence, FDSS; host cell line not named in the record; reference of the full effect not given here. Mucolipin-1 (Homo sapiens), Q9GZU1. activation, % (test concentration not listed); in the data active = activation above about 50%; inconclusive = about 30% to 50%; inactive = below about 30%; also: 0% is about no effect; the text of the record puts the active cut at 80%
Target sequence (Q9GZU1 whole entry, looked up): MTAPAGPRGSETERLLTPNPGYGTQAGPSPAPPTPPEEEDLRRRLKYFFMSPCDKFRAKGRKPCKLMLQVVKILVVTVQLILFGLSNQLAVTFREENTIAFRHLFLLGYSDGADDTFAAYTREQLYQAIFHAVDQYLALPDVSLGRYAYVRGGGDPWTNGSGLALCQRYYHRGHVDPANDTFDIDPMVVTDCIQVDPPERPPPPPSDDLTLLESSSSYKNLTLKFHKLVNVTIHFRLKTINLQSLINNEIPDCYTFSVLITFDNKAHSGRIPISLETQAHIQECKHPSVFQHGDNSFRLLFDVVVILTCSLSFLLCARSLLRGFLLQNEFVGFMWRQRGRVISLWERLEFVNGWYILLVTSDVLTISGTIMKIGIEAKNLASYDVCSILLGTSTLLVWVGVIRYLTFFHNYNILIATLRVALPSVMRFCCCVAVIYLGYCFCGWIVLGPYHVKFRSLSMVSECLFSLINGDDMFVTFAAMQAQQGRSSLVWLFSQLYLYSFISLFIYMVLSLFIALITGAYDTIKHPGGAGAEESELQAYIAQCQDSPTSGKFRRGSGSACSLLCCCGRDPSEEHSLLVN
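Tet-induced TRPML1-DL cells, 1,500 per well, cultured overnight, were loaded with a no-wash Ca2+ dye for 45–90 min. Calcium fluorescence was recorded on the FDSS for 110 s after compound addition, before the EC80 agonist (4 uM 54-4) was added.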
PINK1 modulator = A Quantitative High throughput Screen to Identify Chemical Modulators of PINK1 Expression; hit rate 0.2% among 410,000; AID 624263, 2012; Potency, µM (highest dose often 76.6 µM), inactives show top-dose activation (PINK1 increase), most hits filed as activators; PINK1 immunofluorescence, high-content cytometry, 24 h; active = well fitted activation curve with a large enough effect; inconclusive = small, poorly fitted or top-dose-only effect; inactive = flat fitted curve, though single readings scatter; cell line not stated here;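 also: potency is read from the fitted curve at half-maximal effect; % of control where 0% means no effect; nearly all actives have a fitted effect of over 65% in size; a mitochondrial uncoupler was the plate control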
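Measures PINK1 amount and localization on or inside mitochondria by immunofluorescence. Stable cells get compounds at 5 concentrations for 24 hours before fixation and staining; CCCP controls included.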
D2 PAM = Beta-Arrestin HTS for Positive Allosteric Modulators of the Human D2 Dopamine Receptor: Potentiators | potentiation, % (test concentration not listed) | hit rate 0.23% among 360,000 | AID 624464, 2012 | DiscoveRx D2 beta-arrestin cells, luminescence, 90 min; 100% = 57 uM dopamine signal; active = potentiation of 50% or more; inconclusive = 30% to 50%; inactive = 30% or less;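 also: compound concentration not given in the record; tested on top of an EC20 dose of dopamine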
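D2 cells co-treated with compound plus 50 nM dopamine (EC20) for 90 min at 37 deg C to detect potentiation. Beta-arrestin recruitment was read as enzyme-fragment luminescence after 1 h at ambient temperature. Full response was set by 57 uM dopamine.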
Six1-Eya2 inh = qHTS Assay for Inhibitors of the Six1/Eya2 Interaction. AlphaScreen GST-Six1/His-Eya2 binding, biochemical; stronger effect = lower value; control for the full effect not named in the record. activity change, % (test concentration not listed). hit rate 0.56% among 360,000. AID 651725, 2012; in the data active = activity change below about -65%; inconclusive = about -30% to -65%; inactive = above about -30%; also: % is scaled to controls: 0 for no effect and ±100 for the full control effect; compound concentration not given in the record
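Compounds are tested against tagged Six1 and Eya2 proteins bridged by glutathione donor and nickel acceptor beads; after a one-hour incubation at 37 °C without light, AlphaScreen emission is recorded.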
TRPML1 blocker = qHTS for Inhibitors of the Human Mucolipin Transient Receptor Potential 1 (TRPML1). TRPML1-inducible cells, Ca2+ dye fluorescence, FDSS; stronger effect = lower value; inhibition of EC80 agonist-evoked calcium signal. Mucolipin-1 (Homo sapiens), Q9GZU1. hit rate 0.02% among 390,000. activity change, negative = inhibition, % (concentration not given with the values); in the data active means activity change below about -50%; inconclusive means about -30% to -50%; inactive means above about -30%;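 also: stimulus is agonist 54-4 at its EC80 concentration; % is scaled to controls: 0 for no effect and ±100 for the full control effect; compound concentration not given in the record; the text of the record puts the active cut at -80%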
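Tet-induced TRPML1-DL cells loaded with Ca8 no-wash calcium dye were read kinetically on FDSS. Compound addition was followed by EC80 agonist 54-4 (4 uM final); inhibition was read over 110 s.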
The depositor's hits bear a star; ? = inconclusive; · = not tested or not shown; & = joins results of further samples; ! = not active in a repeat; [ ] = remark or other dose.

SMILES	D2 ag	TRPML1 ag	PINK1 modulator	D2 PAM	Six1-Eya2 inh	TRPML1 blocker
O=C(OCc1ccccc1)N1CCC2CC1c1c(Cl)cccc12 (configuration not stated)	3.2	5.7	10%	-1	25	9
CC1(C)Cc2c(sc3ncn(N)c(=N)c23)CO1	-1.6	1.3	4.0%	7	-5	-18
CSc1nc(C)cc(Nc2c(C)cc(C)cc2C)n1	·	0.9	4.0%	·	·	14
O=C(CN1C(=O)C2C3C=CC(C4CC34)C2C1=O)Nc1cnc2ccccc2c1 (configuration not stated)	7.5	-0.5	-0.8%	9	-3	1
NC(=O)CN1CCOCCOCCN(CC(N)=O)CCOCCOCC1	-0.2	0.4	0.1%	-7	3	9
CCCn1nc(NC(=O)C2CCCO2)c2cc3cccc(C)c3nc21 (configuration not stated)	0.0	3.7	1.5%	10	69	27
O=C(C(Cl)Cl)N1CC2CCC(CC2)C1	-9.8	-0.9	4.1%	-6	3	24
O=C(c1ccc(N2CCCC2=O)cc1)N1CCN(c2ccc(C(F)(F)F)cc2[N+](=O)[O-])CC1	-4.2	0.0	1.0%	-8	13	-10
Cc1ccc(SCC(=O)NNC(=O)CCS(=O)(=O)c2ccc(C)cc2)cc1	-0.6	1.8	1.8%	-3	6	-1
Cc1cccc(NC(=O)C2CCCN2C(=O)NC2CCCCC2)c1 (configuration not stated)	-2.5	1.6	1.4%	8	-4	0
COc1ncccc1C(=O)NC1CCCc2c1cnn2-c1ccc(C)c(C)c1 (configuration not stated)	-3.2	0.4	3.1%	-3	0	10
COc1ccc(CCN2CCCn3c2nc2c3c(=O)n(Cc3ccccc3F)c(=O)n2C)cc1OC	2.0	2.5	2.5%	1	-30	-1
COCC(=O)N1CCC(Oc2ccc(C(=O)N3C[C@@H]4CCC[C@H]3C4)cc2)CC1	-1.6	0.0	0.9%	-3	4	-11
COc1ccc(C(=O)NC(=S)N2CCCCC2c2cccnc2)cc1OC (configuration not stated)	-3.0	·	0.8%	-38	-6	·
CC(C)NC(=O)N(C)C[C@H]1Oc2ccc(NC(=O)CCN3CCOCC3)cc2C(=O)N([C@H](C)CO)C[C@@H]1C	-1.6	-1.4	2.7%	6	3	8

Single entries from the entries so far:
COCC(=O)N1CCC(Oc2ccc(C(=O)N3C[C@@H]4CCC[C@H]3C4)cc2)CC1 @ D2 PAM = -3
CCCn1nc(NC(=O)C2CCCO2)c2cc3cccc(C)c3nc21 (configuration not stated) @ TRPML1 blocker = 27
O=C(C(Cl)Cl)N1CC2CCC(CC2)C1 @ D2 ag = -9.8
Cc1ccc(SCC(=O)NNC(=O)CCS(=O)(=O)c2ccc(C)cc2)cc1 @ D2 ag = -0.6
CSc1nc(C)cc(Nc2c(C)cc(C)cc2C)n1 @ TRPML1 blocker = 14

Next entries.
SMILES	D2 ag	TRPML1 ag	PINK1 modulator	D2 PAM	Six1-Eya2 inh	TRPML1 blocker
COCCNC(=O)c1ccc(CS(=O)(=O)c2ccccc2OC)o1	-20	0.5	1.0%	-2	5	-11
COC(=O)C(CCCCNC(=O)OCc1ccccc1)NC(=O)CN (configuration not stated)	-0.9	-0.1	2.8%	-7	8	-6
COC(=O)c1ccc(N2C(=O)C3C4C=CC(CC4)C3C2=O)cc1 (configuration not stated)	1.1	0.8	0.7%	0	23	2
CCc1ccc(NC(=O)c2cc3c(=O)n(Cc4cccnc4)ccc3nc2C)cc1	·	1.7	-0.6%	·	·	-3
CC(C)C(N)c1csc(NC(=O)Nc2cccc(C(F)(F)F)c2)n1 (configuration not stated)	7.7	-0.3	-1.4%	-7	0	·
COc1cccc(N2CCN(C(=O)c3cn(Cc4ccccc4)nc3-c3cccnc3)CC2)c1	-4.7	0.6	5.1%	-7	-11	9
O=C(CSc1nc2c(cnn2-c2ccc(F)cc2)c(=O)[nH]1)N1CCCc2ccccc21	-0.4	1.7	3.2%	-7	4	-9
COc1ccccc1NC(=O)N(C)C[C@@H]1OCc2cnnn2CCCC(=O)N([C@H](C)CO)C[C@@H]1C	-5.2	-0.7	0.5%	3	4	-13
O=C(CN1CCN(Cc2cccc(F)c2)CC1)Nc1ccccc1F	3.4	0.7	0.4%	-11	0	42
Cc1ccc(Cc2c(-c3ccco3)nc3c4ccccc4ccn23)cc1	-5.2	0.9	30%	-11	?	·
Cc1ccc(OCCSc2nc(N)cc(N)n2)cc1	-3.6	1.3	3.8%	-1	-14	-4
CCN(C(=O)c1cccc(NC(=O)c2ccccc2)c1)C1CCCCC1	-5.3	0.1	2.1%	-17	3	3
O=C(Cc1cccc2ccccc12)NC(NC(=S)Nc1ccccc1Cl)C(Cl)(Cl)Cl (configuration not stated)	-0.6	6.1	-1.3%	-5	-6	-9
COC(=O)c1sccc1-n1cccc1C(=O)C(=O)N1CCCCC1	-4.1	1.3	-2.4%	-28	-3	-1
O=C(c1ccc(Cl)c(S(=O)(=O)N2CCOCC2)c1)N1CCN(c2ccccc2F)CC1	4.3	0.5	2.7%	-7	-2	4
C/C(=N\NC(=O)C1COc2ccccc2O1)c1ccc(N2CCOCC2)cc1 (configuration not stated)	-7.0	0.3	-0.8%	-6	3	-11
Cc1cccc(N(CC(=O)NC(C)(C)C)C(=O)CNC(=O)c2cccs2)c1C	0.4	-0.2	-0.8%	2	5	13
c1cnc(Oc2ccc3oc4ccccc4c3c2)nc1	1.6	0.4	0.8%	2	12	35
Cc1cc(Br)cc2cn[nH]c12	-4.0	-0.4	-0.7%	-1	7	-4
COc1ccc(NC2c3ccccc3C(=O)N2c2cccnc2)cc1 (configuration not stated)	-8.6	·	0.5%	-5	-4	·
Cc1ccc(S(=O)(=O)Cc2ccc(C(=O)NC3CCCC3)o2)cc1	-2.0	-1.2	-0.6%	1	4	-2
O=C(COC(=O)CNC(=O)c1ccc(Cl)cc1Cl)NC1CCCCCCC1	0.5	1.5	2.0%	-6	9	24
Cc1ccc2oc(=O)n(Cc3ccc(F)cc3)c2c1	0.6	-0.7	1.2%	-5	10	6
CCCNC(=O)C1(C)CCN(CCC(=O)c2ccc(Br)cc2)C1 (configuration not stated)	-5.6	-0.5	2.2%	-16	-4	-6
COc1ccc(N2CC(=O)N(c3ccc(OC)c(OC)c3)CC2=O)cc1OC	-0.1	-0.4	0.1%	-3	11	12
CC1CC1C(=O)OCc1cc(=O)n2cc(Br)ccc2n1 (configuration not stated)	2.0	-0.3	-0.3%	10	8	1
Fc1c(F)c(F)c(N/N=C/c2c[nH]c3ccccc23)c(F)c1F	?	1.9	23%	60*	-8	17
CCN(CC(=O)N1CCC(C(N)=O)CC1)S(=O)(=O)c1ccc(Cl)cc1	-3.5	-0.2	0.9%	-14	-1	2
O=C(CCS(=O)(=O)c1cccc2nonc12)Nc1cccc2c1CCCC2	-1.3	2.1	8.8%	-4	3	0
CC(=O)c1ccc(OCC(=O)Nc2ccc3c(c2)CCC3)cc1	-3.2	-0.1	0.0%	-25	-1	-16
COc1ccc(CNC(=O)COc2ccc(OC)cc2)cc1	0.6	1.5	-0.9%	-5	5	21
Cc1ccc(C(C)C)c(OCCCN(C)Cc2ccccc2)c1	-2.0	-0.3	-1.5%	-34	4	-20
Cc1c(NC(=O)c2nc3ccccc3n(C)c2=O)cccc1[N+](=O)[O-]	·	-1.2	0.8%	·	·	1
Cc1ccc2nc(SCC(=O)NCc3ccc4c(c3)OCO4)nc(=O)n2c1	-1.4	-0.7	-1.6%	-9	3	-1
O=C(NCc1ccccc1CN1CCCC1)C1CCN(C(=O)c2ccc(Cl)cc2)CC1	-1.1	-0.7	1.4%	-21	-7	3
CC(=O)c1cccc(NC(=O)Cn2cc(C(=O)c3cccc(Cl)c3)c(=O)c3ccc(C)nc32)c1	·	-0.3	2.1%	·	·	-7
CCCn1c(SCC(=O)NC(=O)NC(C)(C)C)n[nH]c1=O	1.5	-0.2	-1.2%	-5	-11	1
CCOc1ccc(/C=C/C(O)=C2/C(=O)N(C)C3(C)CC2c2ccccc2O3)cc1OC (configuration not stated)	0.4	1.6	-0.9%	-1	0	-8
N=C(N)SCc1nc2ccccc2c(=O)n1-c1ccccc1	-6.9&-3.9	-1.0&-0.1	8.2%&-0.4%	-11&-13	-82*!	-5&-8
Cc1ccccc1N1CCN(C2CCCN(C(=O)CCC3(C)CC3)C2)CC1 (configuration not stated)	-2.8	-0.8	3.5%	-11	2	7
CNC(=O)C(C)N1c2cccc3cccc(c23)S1(=O)=O (configuration not stated)	-2.3	-0.3	1.9%	-10	0	-2
O=C(NC1CCCCC1)c1cc2c(cc1Cl)N1CCCCCC1=NS2(=O)=O	-3.1	0.1	-4.1%	-8	-1	-8
C=CCn1c(-c2cccc([N+](=O)[O-])c2)n[nH]c1=S	5.5	-0.6	0.6%	-2	-3	36
O=[N+]([O-])c1cccc(-c2ccc(/C=N/NC(=S)Nc3cccc(F)c3)o2)c1	-1.2	-0.4	3.4%	-10	-20	-1
NCCCC[C@@H]1NC(=O)c2cc([N+](=O)[O-])cc(I)c2SC[C@@H](C(N)=O)NC(=O)[C@H](CCC(N)=O)NC1=O	2.7	0.3	0.1%	4	1	-4
CCOC(=O)c1cc(C(=O)NC(C)c2ccccc2)c(C)[nH]c1=O (configuration not stated)	-0.6	0.2	1.8%	-14	2	26
CCCC(=O)N1CCC1(C)C(=O)Nc1ccc2nccnc2c1 (configuration not stated)	-4.1	-0.5	0.8%	-10	-1	·
COc1ccc2c(c1)c(C(=O)CN1CCN(c3ccccc3)CC1)c(C)n2C	5.8	-0.1	0.5%	-29	-14	-8
CCc1ccc2occ(CC(=O)Nc3ccc(C)c(C)c3)c2c1	·	5.0	19%	·	·	6
Cc1nn(-c2ccc(F)cc2)c(N)c1C1(O)C(=O)Nc2ccccc21 (configuration not stated)	2.2	1.0	-0.8%	-11	6	-21
COCCCN1C(=O)C(=O)/C(=C(/O)c2ccc(S(=O)(=O)N3CCOCC3)cc2)C1c1ccc(OC)cc1 (configuration not stated)	-2.4	-0.2	0.8%	-11	-6	11
Cc1nn(-c2ccccc2)c(N)c1C(O)(CC(=O)C(F)(F)F)C(F)(F)F (configuration not stated)	-3.7	0.4	?	-13	1	7
CCOC(=O)c1csc(NC(=O)c2ccc(OC)c(OC)c2)n1	-3.6	0.4	13%[38.3 µM]	0	2	-3
O=C(N/N=C/c1ccccn1)c1ccc(Br)cc1	-11	-1.2	1.8%	-38	?	23

Three of the entries above in order of the TRPML1 blocker value, rising.
Structure	D2 ag	PINK1 modulator	D2 PAM	Six1-Eya2 inh	TRPML1 blocker
CCOC(=O)c1csc(NC(=O)c2ccc(OC)c(OC)c2)n1	-3.6	13%[38.3 µM]	0	2	-3
COCCCN1C(=O)C(=O)/C(=C(/O)c2ccc(S(=O)(=O)N3CCOCC3)cc2)C1c1ccc(OC)cc1 (configuration not stated)	-2.4	0.8%	-11	-6	11
CCOC(=O)c1cc(C(=O)NC(C)c2ccccc2)c(C)[nH]c1=O (configuration not stated)	-0.6	1.8%	-14	2	26
